# BJeLR viab HTS: compounds reducing viability of BJeLR cells; BJeLR fibroblasts viability, CellTiterGlo ATP luminescence, 48 h; HRASV12, hTERT and SV40 LT/ST transformed; viability loss activity score, % (test concentration not listed); AID 2275; hit rate 0.64% among 30,000; in the data active = viability loss activity score above about 50%; about a fifth of its hits are not listed in these tables;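 also: higher score means fewer live cells and less ATP luminescence; stock transfer was 50 or 100 nL into about 30 µL; 0% = vehicle wells and 100% = a reference killing control; one replicate is shown; the record names a cut of 85%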
# A1 inh: inhibitors of A1; MEF A1-2A-BIM cells, caspase-Glo luminescence, 3 h; percent of clofoctol signal, DMSO as zero; caspase activation, % (test concentration not listed); hit rate 0.51% among 21,000;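 active = most replicate scores above 10, or exactly half above 10 with mean activity above 10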;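 also: effector caspase 3 and 7 activity cleaving a DEVD luciferin substrate; 50 nL library stock added to about 30 µL; numbers are from one replicate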
# An asterisk follows results filed as active; . = not tested or not shown. Some of the compounds tested; rates above refer to the full screens.
SMILES,BJeLR viab HTS,A1 inh
COc1cc(OC)c2c(c1)OC(c1ccccc1)CC2=O (centres undefined),-2.2,0.7
COc1ccc(CCn2cnc3oc(-c4ccccc4)c(-c4ccccc4)c3c2=N)cc1OC,-4.8,0.3
CCCc1cc(C(=O)OC)c(NC(=O)CCCC(=O)O)s1,2.6,.
C[C@@H]1CN([C@H](C)CO)C(=O)c2cc(NC(=O)Nc3ccccc3)ccc2O[C@H]1CN(C)S(=O)(=O)c1cccs1,1.1,1.8
COc1ccc(S(=O)(=O)N(C)CCO)cc1-c1nnc2c3ccccc3c(C)nn12,-0.8,.
CCNc1sc(S(=O)(=O)CC)nc1S(=O)(=O)c1ccc(C)cc1,1.7,0.4
CCc1cccc2c(CCNC(=O)COc3ccc(F)cc3F)c(C)[nH]c12,1.4,-0.8
CCN(CC)C(=O)c1nn(C)c(=O)c2ccccc12,4.9,1.3
O=C(CCC1Nc2c3ccccc3nc(=S)n2C1=O)N1CCN(c2ccccc2)CC1 (centres undefined),1.2,0.5
C[C@@H]1CN([C@H](C)CO)C(=O)c2cccc(NC(=O)Nc3cccc4ccccc34)c2O[C@H]1CN(C)S(=O)(=O)c1ccc(F)cc1,1.3,.
Cc1ccc(S(=O)(=O)Nc2cccc3c2O[C@@H](CN(C)C(=O)Nc2cccc4ccccc24)[C@@H](C)CN([C@H](C)CO)C3=O)cc1,0.9,.
Cc1ccc(CNC(=O)CSc2nc(NCCc3ccccc3)c3ccccc3n2)cc1,-4.2,0.2
Cc1cc2c(c(=O)n1CC1CCCO1)C(c1cccs1)C(C#N)=C(N)O2 (centres undefined),2.2,0.2
COc1ccc2c(Sc3ccccc3)c(C(=O)N3CCc4ccccc43)[nH]c2c1,4.4,1.1
CC(C)NC(=O)N(C)C[C@H]1Oc2ccc(NC(=O)Nc3ccc4c(c3)OCO4)cc2C(=O)N([C@H](C)CO)C[C@H]1C,1.5,1.0
COc1cc2c(cc1OC)CN(C(=S)Nc1ccccc1)CC2,0.4,0.4
COc1ccc(NC(=O)c2ccc3nc(C)c(C)nc3c2)cc1,19.2,-7.0
CCS(=O)(=O)c1ccc(O)c(NC(=O)COc2ccc(OC)cc2)c1,5.9,-0.1
O=c1nc2sc3ccccc3n2c(=O)n1-c1ccccc1,3.0,-1.1
Cc1cccc(NC(=O)C2c3ccccc3C(=O)N3CCc4ccccc4C23)n1 (centres undefined),-1.3,.
C[C@@H]1CN([C@@H](C)CO)C(=O)c2cccc(NS(=O)(=O)c3ccc(F)cc3)c2O[C@H]1CN(C)Cc1ccccc1,17.5,.
Cc1cc(NC2CCCCC2)nc(NCc2ccccc2)n1,3.6,.
O=S(=O)(c1cccs1)N1CCCCCC1,0.8,.
COc1ccc(S(=O)(=O)Nc2ccc3c(c2)C(=O)N([C@@H](C)CO)C[C@@H](C)[C@@H](CN(C)Cc2ccc4c(c2)OCO4)O3)cc1,-0.3,0.2
Cc1noc(C)c1S(=O)(=O)Nc1ccc2c(c1)C(=O)N([C@@H](C)CO)C[C@@H](C)[C@H](CN(C)Cc1ccc(C(=O)Nc3ccccc3N)cc1)O2,4.4,.
CNC[C@H]1Oc2ccc(NS(=O)(=O)c3ccc(Cl)cc3)cc2C(=O)N([C@@H](C)CO)C[C@@H]1C,0.7,-0.2
O=C(CN(C1=NC2CS(=O)(=O)CC2S1)c1ccc(F)cc1)Nc1ccccc1C(F)(F)F (centres undefined),-2.6,-0.3
CCCCN(C)c1nc(CC)c2c(c1C#N)CC(C)(C)OC2,-1.7,-0.4
C[C@H](CO)N1C[C@H](C)[C@H](CN(C)S(C)(=O)=O)Oc2ccc(NS(C)(=O)=O)cc2C1=O,0.2,0.9
CC(C)(C)C(/C=C/c1ccc(Cl)cc1Cl)n1nnnc1C(C)(C)N1CCOCC1 (centres undefined),-6.3,-0.6
Cc1ccc2oc(=O)c3cnn(CC(=O)N4CCCCC4C)c3c2c1 (centres undefined),3.5,.
COc1ccc(NC(=O)CSc2ncccc2C(=O)Oc2ccccc2Cl)cc1OC,-7.3,0.2
CC(C)NC(=O)N(C)C[C@@H]1Oc2ccc(NC(=O)CCN3CCOCC3)cc2C(=O)N([C@@H](C)CO)C[C@@H]1C,1.7,-0.3
CCCCN(C)C(=O)c1ccc(Sc2ccc(Cl)cc2)c(NC(C)=O)c1,5.4,0.3
C[C@@H]1CN([C@H](C)CO)C(=O)c2cccc(NC(=O)C3CC3)c2O[C@H]1CN(C)C(=O)Nc1ccc2c(c1)OCO2,14.5,.
CNC[C@@H]1Oc2c(NC(=O)Nc3ccc(C(F)(F)F)cc3)cccc2C(=O)N([C@H](C)CO)C[C@H]1C,-1.9,.
CCOC1=NC(C(F)(F)F)(C(F)(F)F)N=C2Sc3ccccc3N12,-0.9,-0.8
CCc1c(C)sc(NC(=O)C2c3ccccc3Oc3ccccc32)c1C(=O)OC,-6.7,.
FC(F)(F)c1ccc2nc(SCc3ccc(Br)cc3)[nH]c2c1,-0.7,1.1
Cc1cc(C(=O)Nc2cccc3c2O[C@@H](CN(C)S(=O)(=O)c2ccccc2)[C@@H](C)CN([C@H](C)CO)C3=O)n(C)n1,-0.9,.

# Ordered by number of heavy atoms (smallest number first): some entries from above
SMILES,BJeLR viab HTS,A1 inh
Cc1cc(NC2CCCCC2)nc(NCc2ccccc2)n1,3.6,.
Cc1ccc2oc(=O)c3cnn(CC(=O)N4CCCCC4C)c3c2c1 (centres undefined),3.5,.
CC(C)(C)C(/C=C/c1ccc(Cl)cc1Cl)n1nnnc1C(C)(C)N1CCOCC1 (centres undefined),-6.3,-0.6
Cc1cc(C(=O)Nc2cccc3c2O[C@@H](CN(C)S(=O)(=O)c2ccccc2)[C@@H](C)CN([C@H](C)CO)C3=O)n(C)n1,-0.9,.
COc1ccc(S(=O)(=O)Nc2ccc3c(c2)C(=O)N([C@@H](C)CO)C[C@@H](C)[C@@H](CN(C)Cc2ccc4c(c2)OCO4)O3)cc1,-0.3,0.2

# Next section.
SMILES,BJeLR viab HTS,A1 inh
C1=C(N2CCOCC2)Cc2ccccc21,-1.8,0.8
C[C@H]1CN([C@@H](C)CO)C(=O)c2cc(NC(=O)C3CC3)ccc2O[C@@H]1CN(C)S(=O)(=O)c1ccccc1,0.6,0.6
O=C(/C=C/c1ccc(O)cc1)c1ccc(O)cc1O,0.6,-6.9
CC(C)c1ccc(NC(=O)CN2C(=O)c3ccccc3Sc3ccc(C(=O)N4CCCC4)cc32)cc1,-5.4,1.2
CCOC(=O)N1CCc2c(sc3c2C(=O)NC(c2ccccc2)N3)C1 (centres undefined),-0.8,.
O=C(CCc1nc(-c2ccccc2)no1)Nc1ccccc1,0.1,0.8
Cc1ccc(C2=C/C(=C/c3ccc(-c4cccc(C(=O)O)c4)o3)C(=O)O2)cc1,-0.9,.
COc1ccc(-n2nc(C(=O)NCC(=O)Nc3cccc(OC)c3)c3ccccc3c2=O)cc1,-4.1,.
CNC(=O)C1CCN(c2nc3ccccc3n3cccc23)CC1,0.2,-0.3
Cn1c(=O)cc(SCC(=O)NCCN2CCOCC2)c2ccc(Cl)cc21,2.5,.
C[C@H]1CN([C@@H](C)CO)C(=O)c2cc(NC(=O)CCN3CCOCC3)ccc2O[C@H]1CN(C)Cc1ccc(-c2ccccc2)cc1,-2.5,0.1
CCOC(=O)NC(=S)Nc1ccc(C(C)(C)C)cc1,4.1,-0.7
NCCOc1ccc(Cl)cc1,18.4,-0.2
C[C@@H]1CN([C@H](C)CO)C(=O)c2cc(NC(=O)Nc3ccc4c(c3)OCO4)ccc2O[C@@H]1CN(C)C(=O)Nc1cccc2ccccc12,-3.3,-0.9
C[C@H]1CN([C@@H](C)CO)C(=O)c2cccc(NS(=O)(=O)c3ccc(F)cc3)c2O[C@@H]1CN(C)Cc1ccc(C(F)(F)F)cc1,-2.7,.
CC(C)NC(=O)N(C)C[C@@H]1Oc2c(NS(=O)(=O)c3cn(C)cn3)cccc2C(=O)N([C@@H](C)CO)C[C@@H]1C,-5.9,.
Cc1ccc(-c2nn(CC(=O)N(C)C)c(=O)c3ccccc23)cc1,-1.0,-0.5
COc1cc(C2OCC3C(c4ccc(OC5OC(CO)C(O)C(O)C5O)c(OC)c4)OCC23)ccc1O (centres undefined),1.3,0.1
O=C1CSC(=S)N1CCc1ccc(Cl)cc1,-2.1,0.4
CCOC(=O)c1cc(C)nc(Sc2ccccc2NC(=O)c2cccc(C(F)(F)F)c2)c1C#N,-3.4,0.1
Nc1ncnc2c1ncn2C1CCC(CO)O1 (centres undefined),3.8,0.6
C[C@H](CO)N1C[C@H](C)[C@H](CN(C)Cc2ccc(Oc3ccccc3)cc2)Oc2ccc(NS(=O)(=O)c3cn(C)cn3)cc2C1=O,-7.3,-0.1
O=C(NC=Nc1cccnc1)C1COc2ccccc2O1 (centres undefined),-0.6,0.0
C[C@H](CO)N1C[C@H](C)[C@H](CN(C)Cc2ccc(Cl)c(Cl)c2)Oc2c(NC(=O)c3ccc(-c4nccs4)cc3)cccc2C1=O,-0.2,.
COc1ccc(OC)c(NC(=O)c2cccs2)c1,7.0,0.0
Cc1noc(C)c1NC(=O)N(C)C[C@H]1Oc2c(NC(=O)C3CCOCC3)cccc2C(=O)N([C@H](C)CO)C[C@@H]1C,-1.0,.
COc1ccc(CN(C)C[C@H]2Oc3ccc(NS(=O)(=O)c4ccc(Cl)cc4)cc3C(=O)N([C@@H](C)CO)C[C@H]2C)cc1,2.6,0.0
CNC[C@H]1Oc2c(NS(=O)(=O)c3ccc(F)cc3)cccc2C(=O)N([C@@H](C)CO)C[C@H]1C,4.4,.
CC(CN1CCCC1)OC(=O)c1cc(C(C)(C)C)cc(C(C)(C)C)c1 (centres undefined),5.4,-0.9
Cc1ccc(S(=O)(=O)Nc2cccc3c2O[C@@H](CN(C)S(=O)(=O)c2cccs2)[C@H](C)CN([C@@H](C)CO)C3=O)cc1,1.5,.
CSc1cccc(NC(=O)C2CCCN2S(=O)(=O)c2cccc3cccnc23)c1 (centres undefined),0.9,1.5
Cc1ccc(NC(=O)C2(NS(=O)(=O)c3cccc4cccnc34)CCCCC2)cc1,1.0,-0.7
Cc1cccc(Nc2nc(C)cc(C)c2C#N)c1,-1.4,-0.2
O=C(CCc1c[nH]c2ccccc12)OCc1c(Cl)cccc1Cl,-5.1,.
O=C(CCc1nc2ccccc2[nH]1)NCc1ccc(F)cc1Cl,-1.2,.
O=C(COc1ccc(Cl)cc1Cl)NCCO,3.1,0.1
C[C@H](CO)N1C[C@H](C)[C@@H](CN(C)C)Oc2ccc(N(C)C)cc2C1=O,4.2,-0.2
COc1ccc(OC)c(S(=O)(=O)NCCc2sc(-c3ccc(OC)c(OC)c3)nc2C)c1,-0.8,0.5
O=C(CC(=O)Nc1ccccc1OC(F)(F)F)Nc1ccccc1OC(F)(F)F,0.0,0.2
Cc1ccc(S(=O)(=O)N(C)C[C@H]2Oc3c(NC(=O)Nc4ccccc4)cccc3C(=O)N([C@@H](C)CO)C[C@@H]2C)cc1,2.2,.
O=C(/C=C/c1ccco1)N(Cc1cccs1)C1CCS(=O)(=O)C1 (centres undefined),0.7,0.7
C[C@@H]1CN([C@H](C)CO)C(=O)c2cccc(NS(=O)(=O)c3ccc(F)cc3)c2O[C@@H]1CN(C)S(=O)(=O)c1cn(C)cn1,-1.7,.
CC(C)NC(=O)N(C)C[C@@H]1Oc2c(NC(=O)Nc3ccc(C(F)(F)F)cc3)cccc2C(=O)N([C@@H](C)CO)C[C@@H]1C,3.8,.
C[C@@H]1CN([C@@H](C)CO)C(=O)c2cc(NC(=O)CCC(F)(F)F)ccc2O[C@H]1CN(C)S(=O)(=O)c1cccs1,2.5,-0.4
C[C@@H]1CN([C@@H](C)CO)C(=O)c2cccc(NC(=O)C3CC3)c2O[C@H]1CN(C)S(C)(=O)=O,-4.4,.
Cc1nn(-c2ccccc2)c2c1C(C(F)(F)F)(C(F)(F)F)C(C#N)=C(N)O2,12.4,-0.4
CCN1/C(=C2/SC(=S)N(N)C2=O)C=Cc2cc(C)ccc21,-5.1,-1.3
Cc1ccc2[nH]c(=O)c3cc(C(=O)N(C)c4cccc(Cl)c4)sc3c2c1,38.4,0.9
C[C@@H]1CN([C@H](C)CO)C(=O)c2cccc(NC(=O)Nc3ccc(F)cc3)c2O[C@@H]1CN(C)C,4.5,.
CC(C)=CCc1cc2c(c(CC=C(C)C)c1O)O[C@H](c1ccc(O)cc1)[C@@H](O)C2=O,-0.9,0.4
Cc1ccc(S(=O)(=O)N(C)C[C@H]2Oc3c(NC(=O)Nc4ccc5c(c4)OCO5)cccc3C(=O)N([C@@H](C)CO)C[C@H]2C)cc1,14.7,.
CC(=O)Oc1ccc(C(=O)Nc2ccccc2NC(=O)c2ccc(OC(C)=O)cc2)cc1,1.9,.
Cc1ccc(S(=O)(=O)N(c2cc(C)nn2C)S(=O)(=O)c2ccc(C)cc2)cc1,-5.1,1.0
Cc1cc(C)nc(/N=C(/NC(=O)Cc2ccccc2)N2CCC(C(N)=O)CC2)n1,-2.9,-0.7
C[C@@H]1CN([C@H](C)CO)C(=O)c2cccc(NC(=O)c3ccc(-c4nccs4)cc3)c2O[C@H]1CN(C)Cc1ccc(-c2ccccc2)cc1,-1.6,.

# Complete entries from above. Order of screens: BJeLR viab HTS, A1 inh
# C[C@@H]1CN([C@H](C)CO)C(=O)c2cccc(NS(=O)(=O)c3ccc(F)cc3)c2O[C@@H]1CN(C)S(=O)(=O)c1cn(C)cn1 reads -1.7, .
# Cc1ccc(S(=O)(=O)N(C)C[C@H]2Oc3c(NC(=O)Nc4ccc5c(c4)OCO5)cccc3C(=O)N([C@@H](C)CO)C[C@H]2C)cc1 reads 14.7, .
# O=C(/C=C/c1ccco1)N(Cc1cccs1)C1CCS(=O)(=O)C1 (centres undefined) reads 0.7, 0.7
# CC(C)NC(=O)N(C)C[C@@H]1Oc2c(NC(=O)Nc3ccc(C(F)(F)F)cc3)cccc2C(=O)N([C@@H](C)CO)C[C@@H]1C reads 3.8, .
# Cc1cc(C)nc(/N=C(/NC(=O)Cc2ccccc2)N2CCC(C(N)=O)CC2)n1 reads -2.9, -0.7

# Bioassay records: PubChem, Broad Institute
